# Vaccinia inh: blocks a specific stage of Vaccinia orthopoxvirus infection; Vaccinia-infected cells, mCherry/Venus stage reporter fluorescence; stronger effect = lower value; some inactives read as strong as hits; activity change (mCherry), % (concentration not given with the values); 89,000 compounds, 0.01% hits; AID 1053133;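 active = mCherry past -33% and 40 or more points under the early reporter, replicates agreeing; inconclusive = past -33% without that gap or agreement; tested in A549 cells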;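 also: scaled between vehicle wells and reference inhibitor wells; 23 nL library stock went into each well; one replicate is shown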
# Vaccinia inh Venus: second read-out of Vaccinia inh, no call of its own (marks repeat the call); activity change (Venus), %; measured here: Venus reporter, other viral stage;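 negative = less Venus signal; first of two replicates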
# * hit, by the source's call; ? = inconclusive; . = not tested or not shown; & = joins results of further samples.
# Each structure is followed by: Vaccinia inh	Vaccinia inh Venus
Cc1ccc(S(=O)(=O)NCC[C@@H]2CC[C@H](NC(=O)C3CCOCC3)[C@@H](CO)O2)cc1
 : 4.1	8.8
C[C@@H]1CN([C@H](C)CO)C(=O)c2cc(NS(=O)(=O)c3ccccc3)ccc2O[C@@H](C)CCCCO[C@@H]1CN(C)Cc1ccncc1
 : -13.6	-15.2
O=C1CNC[C@@H]2[C@@H](c3ccc(C#Cc4cccnc4)cc3)[C@@H](CO)N12
 : -4.6	5.6
CCN1[C@@H]2c3ccc(-c4ccccc4)c(=O)n3C[C@@H]2[C@@H](CO)[C@@H]1C(=O)NCCc1cn(C)cn1
 : 0.6	3.9
C[C@@H]1CCCCO[C@@H](CN(C)C(=O)Nc2ccc(F)cc2)[C@H](C)CN([C@@H](C)CO)C(=O)c2cc(NC(=O)Cc3ccccc3)ccc2O1
 : -17.5	-13.3
Cc1cccc(S(=O)(=O)N2C[C@@H](O)COC[C@@H]3O[C@@H](CC(=O)N4CCN(C)CC4)CC[C@H]32)c1
 : 6.5	11.9
O=C(N[C@@H]1CC[C@H](CCn2cc(-c3ccccn3)nn2)O[C@@H]1CO)c1ccccc1
 : 0.9	-1.0
C[C@@H]1CN([C@@H](C)CO)C(=O)c2cc(NS(=O)(=O)c3ccc(F)cc3)ccc2O[C@@H]1CN(C)C(=O)Nc1cccc2ccccc12
 : -16.7	-15.8
COc1cccc(NC(=O)N[C@H]2C=C[C@@H](CC(=O)NCc3ccncn3)O[C@@H]2CO)c1
 : -1.7	5.0
COc1cccc(C(=O)Nc2ccc3c(c2)OC[C@H](C)N(C)C[C@@H](C)[C@@H](OC)CN(C)C3=O)c1
 : 16.2	10.6
O=C(C[C@@H]1C=C[C@@H](NC(=O)c2ccc(F)cc2)[C@H](CO)O1)NCCc1ccccc1
 : -11.6	-1.6
COc1cccc(CN2[C@H](CO)[C@H](c3ccccc3)C23CN(C(=O)C2CCCC2)C3)c1
 : -22.2	-10.9
COc1cccc(S(=O)(=O)Nc2ccc3c(c2)C(=O)N(C)C[C@@H](OC)[C@@H](C)CN(C(=O)Cc2cccnc2)[C@H](C)CO3)c1
 : 29.0	14.5
C[C@@H](NC(=O)C[C@H]1C=C[C@H](NC(=O)CN2CCOCC2)[C@@H](CO)O1)c1ccccc1
 : 8.3	7.4
C/C=C/c1ccc2c(c1)O[C@H](CN(C)Cc1ccccc1F)[C@@H](C)CN([C@H](C)CO)S2(=O)=O
 : ?	.
CN(C)CC(=O)N1[C@@H]2c3cccc(=O)n3C[C@H]1[C@H](CO)[C@H]2C(=O)NCc1ccccc1
 : 17.1	4.9
O=C(C[C@H]1C=C[C@H](NC(=O)Nc2ccc(F)cc2)[C@@H](CO)O1)NCCN1CCCC1
 : 2.4	9.8
CO[C@H]1CN(C)C(=O)c2ccc(NC(=O)C3CC3)cc2OC[C@@H](C)N(C)C[C@H]1C
 : 8.7	5.2
C[C@@H]1CN([C@@H](C)CO)C(=O)c2cc(C#CC3(O)CCCC3)cnc2O[C@H]1CN(C)S(=O)(=O)c1ccccc1
 : 8.8	6.4
CC(=O)N1[C@H](CNC(=O)C2CC2)[C@@H](c2ccc(-c3cccc(F)c3)cc2)[C@@H]1CO
 : 2.2	4.7
CCC(=O)N(C)C[C@@H]1Oc2ncc(C3=CCCC3)cc2C(=O)N([C@H](C)CO)C[C@@H]1C
 : 13.8	11.4
COc1ccc(NC(=O)Nc2ccc3c(c2)C(=O)N([C@H](C)CO)C[C@@H](C)[C@@H](CN(C)C(=O)Nc2ccc(OC)cc2)O3)cc1
 : 3.7	6.5
CC(C)NC(=O)Nc1ccc2c(c1)CC(=O)N([C@@H](C)CO)C[C@@H](C)[C@@H](CN(C)C(=O)Nc1ccccc1)O2
 : 18.4	18.8
C[C@@H]1CN([C@@H](C)CO)C(=O)c2cc(NC(=O)C3CCCCC3)ccc2O[C@@H](C)CCCCO[C@@H]1CN(C)Cc1ccccc1
 : -20.0	-17.1
C[C@@H]1CN([C@H](C)CO)C(=O)c2cc(NC(=O)Cc3ccccc3)ccc2O[C@H]1CN(C)C(=O)Nc1ccc2c(c1)OCO2
 : 19.2	16.3
O=C(c1ccccn1)N1CC(=O)N2[C@H](C1)[C@H](c1ccc(C#CCc3ccccc3)cc1)[C@@H]2CO
 : 9.1	3.0
CC(C)CC#Cc1ccc2c(c1)O[C@@H](CN(C)C(=O)c1ccncc1)[C@H](C)CN([C@H](C)CO)S2(=O)=O
 : ?	.
Cc1noc(C)c1NC(=O)Nc1cccc2c1O[C@@H](CN(C)Cc1ccc(Oc3ccccc3)cc1)[C@@H](C)CN([C@@H](C)CO)C2=O
 : -10.2	-3.2
CC(=O)N(C)C[C@H]1OCc2ccccc2-c2c(n(C)c3ccccc23)C(=O)N([C@H](C)CO)C[C@@H]1C
 : 13.3	14.7
CO[C@@H]1CN(C)C(=O)c2cc(NS(=O)(=O)c3cn(C)cn3)ccc2OC[C@@H](C)N(Cc2cccc(F)c2)C[C@@H]1C
 : 4.5	7.1
C[C@@H]1CN([C@@H](C)CO)C(=O)c2cccc(NC(=O)c3ccc(-c4nccs4)cc3)c2O[C@@H]1CN(C)C(=O)Nc1ccccc1
 : -14.1	-8.5
C[C@@H]1CN([C@@H](C)CO)C(=O)Cc2cc(NS(=O)(=O)c3ccc(Cl)cc3)ccc2O[C@H]1CN(C)Cc1ccc(C(F)(F)F)cc1
 : ?	.
C[C@H](CO)N1C[C@H](C)[C@H](CN(C)C(=O)NC2CCCCC2)Oc2c(NC(=O)Nc3cccc4ccccc34)cccc2C1=O
 : -6.5	-4.9
C[C@@H]1CN([C@H](C)CO)C(=O)Cc2cc(N(C)C)ccc2O[C@@H]1CN(C)Cc1ccc(Oc2ccccc2)cc1
 : -32.2	-28.6
C/C=C/c1ccc([C@@H]2[C@H]3CN(S(=O)(=O)c4ccc(F)cc4)CCCCN3[C@H]2CO)cc1
 : 7.5	-6.7
C[C@@H]1CN([C@H](C)CO)C(=O)c2cc(NC(=O)Cc3cn(C)c4ccccc34)ccc2O[C@H]1CN(C)Cc1ccc2c(c1)OCO2
 : -4.5	-9.0
C[C@@H]1CN([C@H](C)CO)C(=O)Cc2cc(NC(=O)CCC(F)(F)F)ccc2O[C@@H]1CN(C)CC1CCCCC1
 : -17.7	-9.4
CN1C(=O)c2cc(NC(=O)c3cccc(F)c3)ccc2OC[C@@H]2O[C@H](CC(=O)Nc3ccccc3)CC[C@H]21
 : -18.8	-15.5
CCCC#Cc1ccc2c(c1)O[C@@H](CN(C)C(=O)CC1CC1)[C@H](C)CN([C@H](C)CO)S2(=O)=O
 : -7.2	-10.9
O=C(NCC[C@H]1CC[C@H](NC(=O)C2CC2)[C@H](CO)O1)c1cc(Cl)cc(Cl)c1
 : -2.6	-4.1

# Going on with the list.
Structure	Vaccinia inh	Vaccinia inh Venus
COc1cccc(-c2ccc3c(c2)O[C@H](CN(C)C(C)=O)[C@H](C)CN([C@@H](C)CO)S3(=O)=O)c1	-2.9	-2.5
CC(C)(C)[S@](=O)N1Cc2cc(C(=O)NCCc3ccncc3)nc(-c3cccc(-c4ccncc4)c3)c2[C@@H]1CCO	7.2	2.3
COCCOC(=O)N1C(=O)[C@@]2(c3cc(C#Cc4ccc(OC)cc4)ccc31)[C@H](C(=O)N1CCc3cc(OC)c(OC)cc3C1)[C@H]1C(=O)O[C@H](c3ccccc3)[C@H](c3ccccc3)N1[C@@H]2c1ccc(OCCO)cc1	12.4	-2.9
COc1cccc(S(=O)(=O)N(C)C[C@H]2Oc3cc(C#CCN(C)C)ccc3S(=O)(=O)N([C@H](C)CO)C[C@H]2C)c1	-12.1	-16.5
CCC(=O)NC[C@H]1[C@@H](c2ccc(-c3ccccc3)cc2)[C@@H](CO)N1C(=O)C1CC1	0.8	6.8
COCCNC(=O)C[C@H]1CC[C@@H](NS(=O)(=O)c2ccc(C)cc2)[C@H](CO)O1	9.7	1.5
C[C@@H]1CCCCO[C@H](CN(C)S(=O)(=O)c2ccc(F)cc2)[C@H](C)CN([C@@H](C)CO)C(=O)c2cc(NC(=O)Nc3ccc4c(c3)OCO4)ccc2O1	3.0	-1.0
COc1ccccc1S(=O)(=O)N1[C@@H]2CNC[C@H]1C2c1ccc(-c2ccccc2)cc1 (stereo not given in full)	5.7&8.7	3.2&8.5
C/C=C/c1ccc([C@H]2[C@@H](CO)N(C(C)=O)[C@@H]2CN(CC)C(=O)CC2CC2)cc1	7.0	7.2
Cc1nc(S(=O)(=O)N[C@H]2CCN(Cc3ccc(OCCO)cc3)C2)cn1C	15.0	7.7
COc1ccc2c3c([nH]c2c1)[C@H](CO)N(C(=O)c1ccccc1)CC31CCN(C(=O)c2cccc(F)c2)CC1	-26.3	-21.2
CCC(=O)N(C)C[C@H]1Oc2ncc(-c3ccccc3F)cc2C(=O)N([C@H](C)CO)C[C@@H]1C	17.6	13.2
COc1ccccc1NC(=O)N1CCCCN2[C@@H](CO)[C@@H](c3ccc(-c4cccc(F)c4)cc3)[C@@H]2C1	?	.
CCCC#Cc1ccc2c(c1)[C@H]1[C@H](CCN1S(=O)(=O)c1ccc(F)cc1)[C@H](CO)N2C	-5.2	-3.8
O=C(Nc1ccccc1F)N[C@@H]1CC[C@H](CCNC(=O)C2CCC2)O[C@@H]1CO	-1.0	-0.2
C[C@H](CO)N1C[C@H](C)[C@@H](CN(C)Cc2ccc(C(=O)O)cc2)Oc2ncc(-c3ccc(F)cc3)cc2C1=O	19.0	1.7
COc1ccc(C(=O)Nc2ccc3c(c2)C(=O)N(C)C[C@@H](OC)[C@@H](C)CN(C)[C@H](C)CO3)cc1	2.3	1.8
COc1ccc(S(=O)(=O)N(C)C[C@H]2OCc3ccccc3-c3ccccc3C(=O)N([C@H](C)CO)C[C@H]2C)cc1	6.6	8.1
O=C(NCc1ccc(F)cc1)[C@H]1[C@H](CO)[C@H]2Cn3c(cccc3=O)[C@@H]1N2C(=O)C1CC1	28.0	20.6
Cn1cnc(S(=O)(=O)N2C[C@H](O)COC[C@H]3O[C@H](CC(=O)NC4CCCC4)CC[C@@H]32)c1	-1.4	-3.5
COCC(=O)N(C)C[C@@H]1Oc2ncc(C#C[C@@H](C)O)cc2C(=O)N([C@H](C)CO)C[C@@H]1C	4.1	-3.4
O=C(C[C@H]1C=C[C@@H](NS(=O)(=O)c2ccccc2)[C@@H](CO)O1)N1CCN(c2ccccc2)CC1	0.3	0.0
COc1ccc(S(=O)(=O)Nc2ccc3c(c2)C(=O)N([C@H](C)CO)C[C@@H](C)[C@@H](CN(C)Cc2ccncc2)O3)cc1	5.6	-4.8
COc1ccc(S(=O)(=O)Nc2ccc3c(c2)C(=O)N([C@H](C)CO)C[C@@H](C)[C@@H](CN(C)Cc2ccc(C(=O)O)cc2)OCCCC[C@H](C)O3)cc1	43.0	12.5

# Entries of single compounds, quoted from the list:
# Profile of O=C(C[C@H]1C=C[C@@H](NS(=O)(=O)c2ccccc2)[C@@H](CO)O1)N1CCN(c2ccccc2)CC1 → Vaccinia inh = 0.3; Vaccinia inh Venus = 0.0
# Profile of Cn1cnc(S(=O)(=O)N2C[C@H](O)COC[C@H]3O[C@H](CC(=O)NC4CCCC4)CC[C@@H]32)c1 → Vaccinia inh = -1.4; Vaccinia inh Venus = -3.5
# Profile of COCC(=O)N(C)C[C@@H]1Oc2ncc(C#C[C@@H](C)O)cc2C(=O)N([C@H](C)CO)C[C@@H]1C → Vaccinia inh = 4.1; Vaccinia inh Venus = -3.4

# (list continues)
Structure	Vaccinia inh	Vaccinia inh Venus
Cc1ccc(-c2ccc3c(c2)O[C@H](CN(C)C(=O)NC(C)C)[C@@H](C)CN([C@H](C)CO)S3(=O)=O)cc1	-13.7	-16.0
COc1cccc(NC(=O)N(C)C[C@H]2Oc3ncc(C#Cc4ccc(F)cc4)cc3C(=O)N([C@H](C)CO)C[C@@H]2C)c1	-10.1	-18.2
C[C@@H](O)C#Cc1ccc2c(c1)O[C@@H](CN(C)C(=O)Cc1ccccn1)[C@@H](C)CN([C@@H](C)CO)S2(=O)=O	25.1	18.6
C/C=C/c1ccc([C@H]2[C@@H](CO)N(C(=O)CN(C)C)C23CN(C(=O)C2CCOCC2)C3)cc1	6.9	9.2
C[C@@H]1CN([C@@H](C)CO)C(=O)c2cc(NC(=O)Nc3ccccc3)ccc2O[C@@H]1CN(C)C(=O)NC1CCCCC1	6.8	5.1
COc1ccc(S(=O)(=O)Nc2ccc3c(c2)C(=O)N(C)C[C@@H](OC)[C@@H](C)CN[C@H](C)CO3)cc1	2.6	-2.8
COCC#Cc1cnc2c(c1)C(=O)N([C@@H](C)CO)C[C@H](C)[C@H](CN(C)C(=O)C1CCC1)O2	1.8	2.1
C[C@H](CO)N1C[C@H](C)[C@@H](CN(C)Cc2ccc3c(c2)OCO3)Oc2ccc(NS(=O)(=O)c3ccc(Cl)cc3)cc2C1=O	-5.5	-9.7
C[C@@H]1CN([C@H](C)CO)C(=O)c2cc(NC(=O)CCCN(C)C)ccc2O[C@@H]1CN(C)Cc1ccc(-c2ccccc2)cc1	-22.5	-13.9
CO[C@@H]1CN(C)C(=O)c2cc(NS(=O)(=O)c3cn(C)cn3)ccc2OC[C@@H](C)NC[C@H]1C	11.8	-4.2
COC(=O)C[C@H]1CC[C@@H]2[C@H](COC[C@H](O)CN2C(=O)Nc2cccc(F)c2)O1	2.3	-7.5
CCCC#Cc1ccc2c(c1)O[C@@H](CN(C)S(=O)(=O)c1cccc(F)c1)[C@@H](C)CN([C@H](C)CO)S2(=O)=O	7.6	9.2
COc1ccc(NC(=O)N(C)C[C@H]2Oc3ccc(NS(=O)(=O)c4ccc(Cl)cc4)cc3C(=O)N([C@@H](C)CO)C[C@H]2C)cc1	0.1	-0.5
COc1ccc(S(=O)(=O)Nc2ccc3c(c2)C(=O)N([C@H](C)CO)C[C@H](C)[C@H](CN(C)S(=O)(=O)c2ccc(F)cc2)OCCCC[C@H](C)O3)cc1	?	.

# Source: PubChem

# This is a subset; the hit share may differ from the screen's.
